Compound activity from PubChem.
GIRK2 activ: activators of human GIRK2 potassium channels; P48051; calls only for hits at 25 µM; HEK293-GIRK2 thallium flux, Thallos fluorescence; 63,000 tested, 0.05% active;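 active means among the strongest 0.2% of first-round signals and kept after retests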;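 further: first round at about 10 µM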
Target sequence (P48051 whole entry, looked up): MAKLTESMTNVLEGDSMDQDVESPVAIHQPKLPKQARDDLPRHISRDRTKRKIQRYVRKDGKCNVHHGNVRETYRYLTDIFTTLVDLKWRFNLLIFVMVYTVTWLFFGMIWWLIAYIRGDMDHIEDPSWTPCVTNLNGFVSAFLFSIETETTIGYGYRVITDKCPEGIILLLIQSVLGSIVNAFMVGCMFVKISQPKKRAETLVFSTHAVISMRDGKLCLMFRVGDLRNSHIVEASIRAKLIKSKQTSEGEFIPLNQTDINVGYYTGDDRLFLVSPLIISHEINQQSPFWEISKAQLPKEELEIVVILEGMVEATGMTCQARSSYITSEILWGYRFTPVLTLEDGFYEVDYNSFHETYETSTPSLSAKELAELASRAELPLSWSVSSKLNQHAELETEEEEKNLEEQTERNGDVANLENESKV
Calls only; i = inactive. Only part of the results is shown; count on the stated rates, not on these rows.

SMILES	GIRK2 activ
CS(=O)(=O)N1CCC(C(=O)Nc2nc(-c3cccnc3)cs2)CC1	i
COc1ccc(CC(=O)N2CC(c3nc(-c4cccnc4)no3)C2)cc1OC	i
COc1cc2nc(N3CCCN(C)CC3)nc(NC3CCN(Cc4ccccc4)CC3)c2cc1OC	i
CC(C)(C)c1ccc(S(=O)(=O)NCc2ccc(C(=O)Nc3ccccc3F)cc2)cc1	i
O=C(Nc1nc2c(s1)CN(S(=O)(=O)C1CC1)CC2)Nc1ccccc1F	i
O=C(NCc1cnn2ccccc12)c1ccc(Cl)s1	i
Cc1cccc(NC(=O)Cn2cc(S(=O)(=O)N3CCCCC3)ccc2=O)c1	i
Cc1ccc(C)c(N2CCN(C(=O)c3cc4n(n3)CCCO4)CC2)c1	i
O=C(Cn1nc2c(c1NC(=O)c1c[nH]c3ccccc13)CSC2)NCc1ccccc1	i
COc1ccc(-n2ccn(CC(=O)NCc3ccc(C)cc3)c(=O)c2=O)cc1	i
CCOC(=O)N1CCC(NC(=O)c2cc(=O)c(OCc3cccc(OC)c3)co2)CC1	i
CCOC(=O)c1cnn2ccc(NC(=O)c3ccco3)cc12	i
Cc1ccc(NC(=O)CSc2nc3c(-c4ccccc4)c[nH]c3c(=O)n2C)c(Cl)c1	i
CS(=O)(=O)N1CCC(C(=O)NCC#CCOc2cccc(C(F)(F)F)c2)CC1	i
NC(N)=Nc1ccc(Cl)cc1	i
O=C(Nc1ccc(N2CCN(C(=O)C3CCCO3)CC2)nn1)c1ccccc1 (centres undefined)	i
O=C(Cn1ccn2nc(-c3ccc(Cl)cc3)cc2c1=O)NCc1cccs1	i
O=C(Cn1cc(-c2nc(-c3ccsc3)no2)ccc1=O)N1CCc2ccccc21	i
CS(=O)(=O)N1CCN(CCNC(=O)Nc2ccc(F)cc2)CC1	i
CCOC(=O)C1=C(C)NC(=O)NC1c1cccc2ccccc12 (centres undefined)	i
Cn1c(=O)c2c(nc(SCCO)n2Cc2ccccc2)n(C)c1=O	i
COc1ccc(C)cc1NC(=O)CSc1nc2c(sc(=S)n2-c2ccc(C)cc2)c(=O)n1C	i
CN(C)S(=O)(=O)N1CC(c2nc(-c3cccc(Cl)c3)no2)C1	i
CCOc1ccc(S(=O)(=O)Nc2ccc3c(c2)CCCN3S(=O)(=O)c2ccc(F)cc2)cc1	i
COc1ccc(S(=O)(=O)NCC(c2cccs2)N2CCc3ccccc3C2)cc1OC (centres undefined)	i
The list continues.
SMILES	GIRK2 activ
CC1CCN(CC(=O)N2N=C(c3cccs3)CC2c2ccco2)CC1 (centres undefined)	i
Cc1ccccc1NC(=O)NCCN1CCC(c2cccs2)CC1	i
CCOc1ccc(-n2c(-c3ccccc3)cn3c4c(=O)n(C)c(=O)n(C)c4nc23)cc1	i
COc1ccc(NC(=O)Cn2c(=O)c(CNc3ccccc3)cc3ccc(C)cc32)cc1OC	i
COc1ccc(OC)c(-c2cc(C(=O)Nc3cc(C)ns3)[nH]n2)c1	i
N#C/C(=C\Nc1ccccn1)c1nc2ccccc2s1	i
CCCc1ccc(S(=O)(=O)N2CCC(OC)CC2)cc1	i
CCOc1ccc(S(=O)(=O)NCCCn2ccnc2)c2ccccc12	i
CCc1ccc(-c2ccc3nnc(CCC(=O)NCc4ccc(F)c(Cl)c4)n3n2)cc1	i
COC(=O)c1scc(-c2ccc(C)cc2)c1S(=O)(=O)Nc1ccccc1Br	i
Cc1cc(C)cc(N2CCCn3c2nc2c3c(=O)n(CC(N)=O)c(=O)n2C)c1	i
CCOc1cccc(CNC(=O)c2c(O)c3cccnc3[nH]c2=O)c1	i
COc1ccc2cc(C(=O)N3CCCC(c4nnc(-c5ccccc5F)s4)C3)[nH]c2c1 (centres undefined)	i
Cc1nc2ccc(NC(=O)c3ccccn3)cc2c(=O)n1-c1ccc(F)cc1	i
Cc1nc(C)c(C(=O)Nc2cnc(-n3nc(C)c(C)c3C)nc2)s1	i
NC(=O)N1c2ccccc2C=Cc2ccccc21	i
COc1ccc(-c2ccc(=O)n(CCNS(=O)(=O)c3ccccc3C(F)(F)F)n2)cc1	i
CCn1cc(C(=O)Nc2ccc(Br)c(C)c2)c(=O)c2ccc(C)nc21	i
Cc1cc(C(O)CCNS(=O)(=O)c2ccc(Cl)s2)c(C)o1 (centres undefined)	i
COC(=O)C(Cc1ccc(Cl)cc1Cl)Sc1nnc(N)s1 (centres undefined)	i
O=C(NCc1ccc2c(c1)OCO2)C1CCN(c2ccc(-c3ccccc3)nn2)CC1	i
Nc1nc(N2CCCC3CCCCC32)ncc1[N+](=O)[O-] (centres undefined)	i
COc1ccc(NC(=O)CSc2nccnc2-n2nc(C)cc2C)cc1OC	i
COc1cccc2sc(N3CC(C(=O)NC4CCCC4)C3)nc12	i
CCc1ccc(Oc2cc(N3CCC(C(=O)N4CCN(c5ccc(F)cc5)CC4)CC3)ncn2)cc1	i

7 compounds already listed, sorted by molecular weight, lowest first.
SMILES	GIRK2 activ
Nc1nc(N2CCCC3CCCCC32)ncc1[N+](=O)[O-] (centres undefined)	i
COc1cccc2sc(N3CC(C(=O)NC4CCCC4)C3)nc12	i
CCOc1cccc(CNC(=O)c2c(O)c3cccnc3[nH]c2=O)c1	i
COc1ccc(OC)c(-c2cc(C(=O)Nc3cc(C)ns3)[nH]n2)c1	i
Cc1cc(C(O)CCNS(=O)(=O)c2ccc(Cl)s2)c(C)o1 (centres undefined)	i
COC(=O)C(Cc1ccc(Cl)cc1Cl)Sc1nnc(N)s1 (centres undefined)	i
CCOc1ccc(-n2c(-c3ccccc3)cn3c4c(=O)n(C)c(=O)n(C)c4nc23)cc1	i

(next part)
SMILES	GIRK2 activ
COCC(=O)N1CCN(Cc2nc3ccc(OC)cc3[nH]2)CC1	i
COc1cc([N+](=O)[O-])cc2cc(C(=O)Oc3cccc4ncccc34)c(=O)oc12	i
COC(=O)c1c(NC(=O)C=C(C)C)sc2c1CCC(C(C)(C)C)C2 (centres undefined)	i
COc1cccc2sc(N(CCCn3ccnc3)C(=O)c3ccc(Cl)s3)nc12	i
O=S(=O)(c1c(F)cccc1F)N(Cc1ccoc1)Cc1cccs1	i
COc1cccc(N2CC(c3nc4ccccc4n3Cc3ccc(C)cc3)CC2=O)c1 (centres undefined)	i
CC1=CC(=O)C2C(C)(C)CCC[C@]2(C)[C@H]1CC[C@H](C)CC(=O)O (some centres undefined)	i
Cc1cnc2c(c1N1CCOCC1)c(=O)n(C)c(=O)n2C	i
Cc1ccc2c(=O)c(-c3nc(-c4cccc(F)c4)no3)cn(CC(=O)Nc3ccc(Cl)cc3)c2n1	i
COc1ccccc1N1CCN(CCNC(=O)c2ccccc2C(F)(F)F)CC1	i
COc1ccccc1NC(=O)COc1cc(C)nc(-c2ccc(C)cc2)n1	i
O=C(Cn1cccc(-c2nc(-c3ccc(F)cc3)no2)c1=O)NCc1ccco1	i
Cc1cccc(CC(=O)NCCCS(=O)(=O)N2CCN(c3ccc(F)cc3)CC2)c1	i
COc1ccc(Cl)cc1S(=O)(=O)c1c(C(=O)N2CCCC2)cnc2ccc(C)cc12	i
Cn1c(C2CCCN(S(C)(=O)=O)C2)nn(Cc2cccc(Cl)c2)c1=O (centres undefined)	i
Cc1oc2cc(OCCN3CC4CC(C3)c3cccc(=O)n3C4)ccc2c(=O)c1-c1ccccc1 (centres undefined)	i
O=C(Nc1cccc(Br)c1)c1cnn2c1OCCC2	i
COc1ccccc1N1CCN(c2nnc(SCC(=O)NCc3ccccc3Cl)s2)CC1	i
COc1ccc(Nc2n[nH]nc2C(=O)Nc2cccc(SC)c2)cc1	i
O=C(C1CCC1)N1CCN(CCn2ccnc2-c2ccccc2)CC1	i
O=c1[nH]c(N2CCN(c3ccccn3)CC2)nc2c(-c3ccc(Cl)cc3)csc12	i
Cc1cc(NC(=O)Cn2nc(N(C)C)c3ccccc3c2=O)ccc1Br	i
CCOc1ccc(CNC(=O)CCc2nc3sc4c(c3c(=O)[nH]2)CCCC4)cc1OCC	i
NC(=O)c1nnn(-c2ccc(NS(=O)(=O)c3ccc4c(c3)CCCC4)cc2)n1	i
Cn1c(=O)c([N+](=O)[O-])c(Nc2ccc(Cl)cc2)c2ccccc21	i

2 entries from above in another layout.
GIRK2 activ | compound
i | COC(=O)c1scc(-c2ccc(C)cc2)c1S(=O)(=O)Nc1ccccc1Br
i | CCc1ccc(-c2ccc3nnc(CCC(=O)NCc4ccc(F)c(Cl)c4)n3n2)cc1

Later entries
SMILES	GIRK2 activ
C=CCn1c(=O)c2c(nc(N=Nc3c(O)[nH]c4ccccc34)n2C)n(C)c1=O	i
COc1ccc(N2CC(NC(=O)c3ccccc3OC)CC2=O)cc1OC (centres undefined)	i
CC(C)Sc1ccc2nn(CC(=O)Nc3ccc(Br)cc3F)c(=O)n2n1	i
O=C(Nc1nccs1)C1CCN(C(=O)c2ccc(-n3cccc3)cc2)CC1	i
C=CCn1c(=O)[nH]c2cc(C(=O)NCCSCc3ccccc3)ccc2c1=O	i
NC(=O)c1ccc(NC(=O)Cn2nc(-c3ccccc3)c3sc(N4CCCCC4)nc3c2=O)cc1	i
COc1cccc(-c2csc(-n3nc(C)cc3NC(=O)c3cccs3)n2)c1	i
CCOc1ccc(-c2noc(CSc3nc4cc5c(cc4c(=O)n3C(C)C)OCO5)n2)cc1	i
CCOC(=O)Cn1c(=O)c2c(nc3n(-c4ccccc4)c(C)cn23)n(C)c1=O	i
Cc1nc2c(ccc3nc(NC(=O)NC4CCCC4)sc32)s1	i
CCOc1ccc2ccccc2c1C(=O)NCC1(CO)CC1	i
CN(C)C(CNS(=O)(=O)c1ccc(F)c(Cl)c1)c1cn(C)c2ccccc12 (centres undefined)	i
COc1ccccc1-n1nnc(C(=O)OCc2nc(-c3ccc(C)cc3)oc2C)c1C	i
Cc1cc(C)n(-c2nc(CCNC(=O)Cn3c(=O)oc4ccccc43)cs2)n1	i
COc1ccc(CNC(=O)Nc2ccccc2NC(=O)c2cccc(Cl)c2)cc1OC	i
CN(C)C(CNC(=O)C1CCN(S(C)(=O)=O)CC1)c1cccn1C (centres undefined)	i
O=C(Cc1ccc(Cl)cc1)N1CCC(c2nnc(C3CC3)s2)CC1	i
Cc1ccc(/C=C2\C=C(CC(=O)NCc3ccccc3)c3cc(F)ccc32)cc1	i
CN(C)C(=S)NC(=O)C12CC3CC(C1)CC(c1ccccc1)(C3)C2	i
Cc1cc(OCC(=O)Nc2ccc(Br)cc2F)nc(N2CCCCCC2)n1	i
CCOC(=O)c1cn[nH]c1S(=O)(=O)N1CCN(Cc2ccc3c(c2)OCO3)CC1	i
COc1ccc(Cn2c(=O)c3oc4ccccc4c3n(CC(=O)Nc3ccccc3OC)c2=O)cc1	i
COc1ccc(CCC(=O)N2CCC(Cn3ccnc3C(C)C)CC2)cc1	i
CC(C(=O)NCCOc1ccc(F)cc1)n1nc(-c2ccco2)ccc1=O (centres undefined)	i
COc1ccc(NC(=O)c2c(F)cccc2F)cc1N1CCCC1=O	i
Next compounds.
SMILES	GIRK2 activ
COc1cccc(NC(=O)c2cn(Cc3ccc(NC(=O)CC4CCCCC4)cc3)cn2)c1	i
Cc1ccc(-n2c(N)c(C(=O)Nc3cccc(C)c3)sc2=S)cc1	i
O=C(Cn1cnc2ccccc2c1=O)NCCOc1ccc(-c2ccc(F)cc2)nn1	i
CN(C)c1ccc(C(=O)Nc2cc(N3CCCC3)ncn2)cc1	i
CC(=O)Cn1c(=O)c2c(nc3n2CCN3c2ccc(C)cc2)n(C)c1=O	i
O=C(NCCC(O)c1ccoc1)C(=O)Nc1cc2c3c(c1)CCC(=O)N3CCC2 (centres undefined)	i
Cc1ccc(Cl)cc1N1CCN(CCn2c(C)cn3c4c(=O)n(C)c(=O)n(C)c4nc23)CC1	i
CC12CC3CC(Br)(C1)CC(C(=O)NC(C)(C)CO)(C3)C2 (centres undefined)	i
C=CCn1c(SCC(N)=O)nc2scc(-c3ccc(C)o3)c2c1=O	i
CNC(=O)C(=O)NCC1OCCCN1S(=O)(=O)c1ccc(OC)c(C)c1 (centres undefined)	i
Cn1nc(-c2ccc(F)cc2)cc1C(=O)NCC(N)=O	i
Cc1cc(OCC(=O)Nc2c(C)cccc2C)nc(N2CCN(c3ccccc3)CC2)n1	i
COc1ccc(S(=O)(=O)N2CCN(c3cc(Nc4ccccn4)nc(C)n3)CC2)cc1	i
COC(=O)Cc1c(/C(Cl)=C\C(=O)O)oc2cc(C)cc(O)c2c1=O	i
CN(C(=O)CSc1nccnc1N1CCN(c2ccccc2)CC1)c1ccc(F)cc1	i
COc1ccc(CCNC(=O)CSc2nc3ccccc3[nH]2)cc1	i
Nc1c(-c2nc(-c3ccccc3F)no2)nnn1-c1ccc(F)cc1F	i
Cc1oc2cc(OCc3ccc(Cl)cc3)ccc2c(=O)c1Oc1ccccc1	i
CC1(C)SC2C(NC(=O)C(N)c3ccccc3)C(=O)N2C1C(=O)O (centres undefined)	i
COc1cccc(Nc2nn3c(=O)c4ccc(Cl)cc4nc3s2)c1	i
O=C(/C=C/c1cccs1)NCC1(c2cccs2)CCCC1	i
O=C(Nc1ccc(Cn2cnc(C(=O)O)c2)cc1)c1ccc(Br)cc1	i
COc1cc(OC)cc(C(=O)Oc2c(S(=O)(=O)c3ccccc3)c(C)nn2C(C)(C)C)c1	i
CCOc1cc(C2C(C(=O)Nc3ccc(Cl)cc3)C(C)Nc3ncnn32)ccc1O (centres undefined)	i
COc1ccc(Cl)cc1NC(=O)c1cn(C)nc1C	i
CC1OC(OC2CCC3(C)C(CCC4(C)C3CC=C3C5CC(C)(C)CCC5(C(=O)OC5OC(CO)C(O)C(O)C5O)CCC34C(=O)O)C2(C)C)C(O)C(O)C1O (centres undefined)	i
Cn1c(=O)c2cc(C(=O)Nc3ccc4c(c3)OCO4)n(Cc3ccccc3)c2n(C)c1=O	i

For reference, part of the list above.
SMILES	GIRK2 activ
O=C(Nc1ccc(Cn2cnc(C(=O)O)c2)cc1)c1ccc(Br)cc1	i
COc1cc(OC)cc(C(=O)Oc2c(S(=O)(=O)c3ccccc3)c(C)nn2C(C)(C)C)c1	i
CCOc1cc(C2C(C(=O)Nc3ccc(Cl)cc3)C(C)Nc3ncnn32)ccc1O (centres undefined)	i
COc1ccc(Cl)cc1NC(=O)c1cn(C)nc1C	i
CC1OC(OC2CCC3(C)C(CCC4(C)C3CC=C3C5CC(C)(C)CCC5(C(=O)OC5OC(CO)C(O)C(O)C5O)CCC34C(=O)O)C2(C)C)C(O)C(O)C1O (centres undefined)	i
Cn1c(=O)c2cc(C(=O)Nc3ccc4c(c3)OCO4)n(Cc3ccccc3)c2n(C)c1=O	i
